LASV entry inh: inhibitors of Lassa virus binding or cell entry; Lassa virus pseudotype entry inhibition, cell reporter; control for the full effect not named in the record; Potency, µM (doses to about 37.9 µM), for the others: at the top dose activity change, negative = inhibition, most hits filed as inhibitors; actives 1.2% (n = 300,000); AID 540256; active means well fitted inhibition curve with a large enough effect; inconclusive means small, poorly fitted or top-dose-only effect, or effect the other way; inactive means flat fitted curve, though single readings scatter; tested in HEK293 cells; further: on the % scale 0 is the no-effect control and ±100 the full control effect; nearly all actives have a fitted effect of over 50% in size; luciferase read-out
Cruzain inh noDet: inhibitors of Trypanosoma cruzi cruzain without detergent; P25779; purified cruzain, Z-FR-AMC fluorescence, no detergent; Potency, µM, for the others: max response, negative = inhibition, most hits filed as inhibitors; actives 2.3% (n = 200,000); AID 1476;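 further: plate controls were enzyme without inhibitor for no effect and buffer without enzyme for full effect; nearly all actives have a fitted effect of over 40% in size; top concentration of the series not given in the record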
Target sequence (P25779 123-467 limits assumed): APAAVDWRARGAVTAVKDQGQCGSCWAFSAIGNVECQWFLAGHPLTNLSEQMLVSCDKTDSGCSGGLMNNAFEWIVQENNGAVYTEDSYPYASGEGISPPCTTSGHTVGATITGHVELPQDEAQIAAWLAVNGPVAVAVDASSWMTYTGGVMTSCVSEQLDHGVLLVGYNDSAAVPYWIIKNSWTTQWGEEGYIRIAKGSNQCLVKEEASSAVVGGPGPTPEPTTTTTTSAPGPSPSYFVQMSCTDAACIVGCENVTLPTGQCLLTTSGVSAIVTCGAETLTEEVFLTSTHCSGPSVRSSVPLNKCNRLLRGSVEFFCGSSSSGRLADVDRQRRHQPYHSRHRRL
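Purified cruzain at 1.5 nM, pre-incubated 15 min with compound at room temperature in 100 mM sodium acetate pH 5.5, 5 mM DTT, 0.00005% Triton X-100. Reaction started with 2 uM Z-FR-AMC; AMC fluorescence increase over 60 s gives rate.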
Marburg entry inh: Marburg virus entry inhibition; Marburg virus pseudotyped entry inhibition, cell reporter; control for the full effect not named in the record; about a third of the inactives were read at about 46 µM; Potency, µM (highest dose often 37.8 µM), without a hit: top-dose activity change, negative = inhibition, usual class: inhibitors; actives 1.8% (n = 300,000); AID 540276; active = well fitted inhibition curve with a large enough effect; inconclusive = small, poorly fitted or top-dose-only effect, or effect the other way; inactive = flat fitted curve, though single readings scatter; tested in HEK293 cells; about a fifth of its hits are not listed in these tables; further: on the % scale 0 is the no-effect control and ±100 the full control effect; luciferase read-out
Cruzain inh Det: blocks cruzain activity in presence of Triton detergent; Potency, µM, for the others: max response, negative = inhibition, usual class: inhibitors; purified cruzain, Z-FR-AMC fluorescence, 0.01% Triton; actives 0.43% (n = 200,000); P25779; AID 1478;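 further: plate controls were neutral wells for no effect and buffer without enzyme for full effect; nearly all actives have a fitted effect of over 40% in size; top concentration of the series not given in the record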
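Enzyme 1.5 nM, Z-FR-AMC 2 uM, NaOAc 100 mM pH 5.5, DTT 5 mM, Triton X-100 0.01%; 15 min RT compound preincubation; kinetic ex360/em450, 60 s delta.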
NS1 inh: blocks influenza NS1 protein function. S. cerevisiae slowed by influenza A NS1, growth recovery by OD600. Potency, µM (titrated, usually from 46.1 µM), without a hit: at the highest dose activity, positive = more growth. actives 0.4% (n = 270,000); active means well fitted rising curve with a large enough effect; inconclusive means small, poorly fitted or top-dose-only effect; inactive means no such curve, though single readings can be large or run the other way; further: nearly all actives have a fitted effect of over 50% in size
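OD600 was taken as the measure of yeast growth restored by compound in an NS1-expressing S. cerevisiae strain. Cells had been washed out of glucose medium and diluted 1:100 into galactose -URA medium, pH 6.0.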
StopGo reporter: lowers the luciferase signal of an FMDV 2A StopGo reporter; Potency, µM (highest dose often 57.9 µM), for the others: at the top dose signal change, negative = less light; human cells with a luciferase reporter of 2A StopGo recoding; control for the full effect not named in the record; actives 1.2% (n = 410,000); AID 1159524; active = well fitted falling curve with a large enough effect; inconclusive = small, poorly fitted or top-dose-only effect; inactive = no such curve, though single readings can be large or run the other way; tested in HEK293T cells; further: on the % scale 0 is the no-effect control and ±100 the full control effect; nearly all actives have a fitted effect of over 45% in size; luciferase light after 4 h
SARS PLP yeast: blocks SARS-CoV papain-like protease in a yeast assay | Potency, µM (top dose mostly 32.9 µM), without a hit: at the top dose activity, positive = growth rescue | actives 0.19% (n = 330,000) | S. cerevisiae expressing SARS-CoV PLpro, growth rescue; control for the full effect not named in the record; active means well fitted rising curve with a large enough effect; inconclusive means small, poorly fitted or top-dose-only effect; inactive means no such curve, though single readings can be large or run the other way; further: 0% is about no effect; nearly all actives have a fitted effect of over 55% in size; growth read by luminescence after 48 h
RE007 growth inh: less growth of the S. pombe RE007 Vpr strain | S. pombe RE007 Vpr strain, BacTiter-Glo ATP luminescence, 24 h; control for the full effect not named in the record | Potency, µM (top dose mostly 92.2 µM), inactives show at the top dose activity change, negative = less growth | actives 0.21% (n = 360,000) | AID 651644; active = well fitted falling curve with a large enough effect; inconclusive = small, poorly fitted or top-dose-only effect; inactive = no such curve, though single readings can be large or run the other way;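 further: on the % scale 0 is the no-effect control and ±100 the full control effect; nearly all actives have a fitted effect of over 50% in size; the assay follows cell death caused by Vpr and the record does not say whether a fall means rescue or toxicity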
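Fission yeast strain RE007, carrying one chromosomally integrated HIV-1 vpr copy, was seeded at OD 0.01 in PMG+AL medium with 23 nL pinned compound. After 24 h at 30 °C and 99% humidity, viability was read by BacTiter-Glo luminescence.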
Numbers without * were called inactive; ? = inconclusive; nt = no result given; & = joins results of further samples; [ ] = remark or other dose. Unless noted, the call rests on the fitted dose curve; in most records, active means well fitted curve in the direction sought with a large enough effect; inconclusive means small, poorly fitted or top-dose-only effect, or another doubt; inactive means no such curve, though single readings can be large; an effect the other way counts as inactive or inconclusive. Potency means the concentration at half of the fitted maximal effect.

SMILES	LASV entry inh	Cruzain inh noDet	Marburg entry inh	Cruzain inh Det	NS1 inh	StopGo reporter	SARS PLP yeast	RE007 growth inh
Cc1ccc(-n2nc(C(=O)N/N=C/c3cccc(C(F)(F)F)c3)c3ccccc3c2=O)cc1C	10%	-25%	14%[46.1 µM]	-1.3%	6%	-13%	4%	-17%
COc1ccc(CCNC(=O)CC(C)(C)CC2=NS(=O)(=O)c3ccccc3N2)cc1OC	-6%[46.1 µM]	nt	-8%[46.1 µM]	nt	2%	-16%	0%	0%
COc1cc(NC(=O)c2cccnc2SC)cc(OC)c1OC	5%	nt	7%[46.1 µM]	nt	nt	12%	1%	5%
O=C(Cn1nnc2ccccc21)C1CC1	8%	-10%	7%	4.4%	-7%	-13%	4%	-8%
CC(=O)Nc1cc2c(cc1[N+](=O)[O-])OCCO2	2%	nt	11%[46.1 µM]	nt	nt	-3%	1%	?
O=C(CN1CCC(O)(c2ccc3c(c2)OCO3)CC1)NC1CCCCC1	-9%[46.1 µM]	nt	-3%[46.1 µM]	nt	-1%	7%	0%	-2%
COc1cc(C(=O)NNC(=O)Cc2ccc(S(=O)(=O)N3CCOCC3)s2)cc(OC)c1OC	-1%	nt	?	nt	-2%	-14%	-6%	3%
CCc1nnc(NC(=O)CSc2nc3c([nH]c4ccccc43)c(=O)n2CCOC)s1	?	nt	28%	nt	17%	3%	29%	6%
CCO[C@@H]1OC(C(=O)NCc2ccccc2)=C[C@H](c2ccc3c(c2)OCO3)[C@H]1CCCO	nt	nt	nt	nt	-4%	3%	0%	2%
COCc1cc(C)n(CC(=O)Nc2ccc(NC(C)=O)cc2)c(=O)c1C#N	-2%[46.1 µM]	4%	0%[46.1 µM]	-5.8%	nt	3%	nt	nt
COCCNC(=O)C(c1ccc(Cl)cc1)N(CCOC)C(=O)CCC(=O)Nc1nccs1 (centres undefined)	nt	nt	nt	nt	-2%	-13%	0%	-9%
COc1cc(C(=O)N2CCN(CCc3ccccn3)CC2)cc(OC)c1OC	nt	3%	?	-0.1%	nt	-10%	nt	nt
CCn1cc(C(=O)NCCC(=O)NCCO)c(=O)c2cc3c(cc21)OCO3	12%[46.1 µM]	nt	-10%[46.1 µM]	nt	3%	-1%	14%	-22%
COc1ccc(C(=O)/C=C/c2cn(CN3CCN(C)CC3)c3ccccc23)cc1	-28%	5%	?	-15%	-109%	58%[activator]	-15%	?
CCOC(=O)N1CCN(c2ncnc3nc[nH]c23)CC1	nt	11%	nt	-0.6%	-45%	0%	0%	17%
CC(=O)CSc1ccc(C(=O)O)cn1	0%	6%	-10%	0.2%	-9%	-10%	-12%	-13%
O=C(NC1CC2CCC(C1)N2Cc1ccco1)c1ccccc1 (centres undefined)	6%	-2%	?	0.5%	10%[9.22 µM]	-12%	9%	9%
CCSc1nnc([C@@H](NC(=O)OC(C)(C)C)C(C)C)o1	15%[46.1 µM]	nt	0%[46.1 µM]	nt	9%	-9%	1%	-14%
CC(c1ccco1)N(C(=O)COc1ccc(Cl)cc1)c1ccccn1 (centres undefined)	-6%	5%	?	-1.8%	-12%	29%	-12%	4%
CCCc1nc2c(nnn2Cc2ccccc2Cl)c(=O)[nH]1	-13%	nt	-7%[46.1 µM]	nt	nt	-1%	-1%	2%
CC(C)C(NS(=O)(=O)c1ccccc1)C(=O)N1CCN(C(=O)c2ccco2)CC1 (centres undefined)	9%	nt	-20%	nt	-6%	-9%	?	4%
O=C(Cc1nn[nH]n1)NCCC1=CCCCC1	5%	6%	8%	4.0%	5%	-5%	-1%	0%
O=C(CNC(=S)NC(=O)c1ccccc1Br)c1ccccc1	9%	nt	-18%[46.1 µM]	nt	nt	1%	2%	-5%
CCOc1ccc(NC(=O)CN(C)CC(=O)Nc2ccccc2SC)cc1OCC	?	27%	4%	-3.3%	-3%	-3%	15%	0%
COc1ccc(N2C(=O)NC(=O)/C(=C/c3ccc([N+](=O)[O-])s3)C2=O)cc1	nt	nt	nt	nt	-41%	?	3%	?
O=C(COC(=O)Cc1ccccc1)Nc1ccc(F)cc1	5%[46.1 µM]	nt	-13%[46.1 µM]	nt	nt	2%	0%	-2%
Cc1ccccc1NC(=S)NCc1cccs1	13%	-7%	?	-0.5%	-3%	18%	7%	18%
CN(CC(=O)Nc1ccc(Cl)c(C(F)(F)F)c1)C(=O)c1ccc(OCC2CCCO2)cc1 (centres undefined)	?	nt	?	nt	nt	?	-6%	5%
NC(=O)c1ccsc1NC(=O)CSc1nncs1	27%	nt	-11%	nt	nt	30%	2%	-6%
COc1ccc(/C(C)=N/NC(=O)c2cc(C)[nH]n2)c(OC)c1	-9%[46.1 µM]	nt	-15%[46.1 µM]	nt	-4%	14%	14%	-5%
O=C(C1CC1)N1N=C(c2ccc(Cl)cc2)CC1(O)C(F)(F)F (centres undefined)	nt	nt	nt	nt	-12%	-14%	-1%	-6%
CCOc1ccccc1NC(=O)CCc1c(C)nn(-c2ccc(N3CCOCC3)nn2)c1C	-18%[46.1 µM]	9%	nt	-2.7%	nt	-15%	nt	nt
CN1/C(=C\C(=O)Nc2cccc(Cl)c2)C(C)(C)c2ccccc21	-27%[46.1 µM]	-29%	?	-4.1%	-27%	-15%	-95%	12%
Nc1cc(-c2cccc([N+](=O)[O-])c2)[nH]n1	18%	-9%	14%	-3.0%	9%	-12%	-2%	-3%
CN1C(=O)N(CC(=O)N2CCN(S(=O)(=O)Cc3ccccc3)CC2)C(=O)C12CCCCC2	1%	nt	1%	nt	nt	0%	-4%	5%
CCOC(=O)c1ccccc1NC(=O)N1CCN(Cc2cc(=O)n3nc(-c4ccccc4)sc3n2)CC1	10%[46.1 µM]	9%	nt	1.7%	nt	-9%	nt	nt
COc1ccc(C(=O)NCC(=O)N2CCN(C(=O)c3ccco3)CC2)cc1OC	11%	nt	?	nt	nt	8%	1%	7%
CCCc1sc(N/N=C/c2ccccn2)nc1-c1ccc(Br)cc1	5.2µM*	-24%	?	-3.8%	9%	-1%	-11%	-11%
Cc1ccc(-c2cc(C(=O)OCC(=O)N(C)C3CCS(=O)(=O)C3)c3ccccc3n2)o1 (centres undefined)	-11%	nt	?	nt	15%	-2%	0%	7%
O=C(CC(=O)c1ccccc1)Nc1cc([N+](=O)[O-])ccc1Cl	8%	nt	1%	nt	?	25%	4%	-9%
COc1cccc(CNc2ccc(S(N)(=O)=O)cc2)c1OCc1ccccc1F	?	-5%	?	-10%	-5%	?	22%	-6%
Cc1cccc(C(=O)NC2CCN(S(=O)(=O)c3ccccc3)CC2)c1	2%	nt	19%[46.1 µM]	nt	-1%	-19%	0%	2%
Cc1nc2ccc(NS(=O)(=O)c3ccc(F)c(C)c3)cc2[nH]1	nt	nt	nt	nt	?	-10%	-5%	-6%
C#CCOCCOCCOCCNc1nc(N2CCN(C(=O)[C@H]([C@@H](C)CC)n3cc([C@@H](N)Cc4ccc(O)cc4)nn3)CC2)nc(N2CCN(C(=O)[C@H]([C@@H](C)CC)n3cc([C@@H](N)Cc4ccc(O)cc4)nn3)CC2)n1	nt	nt	nt	nt	2%	11%	-1%	0%
Cc1ccc2cc3c(N)c(C(=O)N4CC(=O)Nc5ccccc54)sc3nc2c1	nt	?	nt	-7.0%	?	nt	-1%	nt
C[C@]12CC[C@@H](O)CC1=CC(=O)C1C2CC[C@]2(C)C(=O)CCC12 (some centres undefined)	-9%	nt	-11%	nt	nt	-22%	0%	13%
O=c1c(Cl)c(N2CCN(c3ccccc3)CC2)cnn1C12CC3CC(CC(C3)C1)C2	?	-8%	?	-2.6%	23%	0%	-10%	-2%
CSc1nc2ccccc2n1CC(=O)Nc1ccc(C)c(C)c1	?	-1%	?	-4.3%	-16%	-20%	1%	37%
NC(=O)c1ccc(NC(=O)CNC(c2ccccc2)c2ccccc2)cc1	?	nt	-26%	nt	5%	-23%	0%	1%
CCOC(=O)CCCNC(=O)c1cncc(O)c1	5%	-5%	0%	6.5%	8%	1%	-4%	-5%
The listing continues:
SMILES	LASV entry inh	Cruzain inh noDet	Marburg entry inh	Cruzain inh Det	NS1 inh	StopGo reporter	SARS PLP yeast	RE007 growth inh
C/C(=N/NC(=O)c1cc(C(C)C)[nH]n1)c1cccs1	?	4%	?	0.2%	9%	-38%	0%	-17%
CC(C)(C)c1nc(N2CCN(C(=O)c3ccco3)CC2)c2nnn(Cc3ccccc3)c2n1	26µM*	8%	?	-0.5%	?	28µM*	-7%	15%
CCOC(=O)c1noc2ncn(CC(=O)Nc3cccc(Cl)c3)c(=O)c12	-1%[46.1 µM]	1%	nt	-3.1%	nt	-19%	nt	nt
CCN(CC(=O)N1CCCC1)S(=O)(=O)c1ccc(OC)cc1	2%	nt	-20%	nt	8%	0%	0%	9%
O=C(NCCc1csc(-c2cccc(F)c2)n1)c1cccs1	-12%[46.1 µM]	4%	nt	-9.4%	nt	0%	nt	nt
CC1CC(C)CN(C(=O)C(NS(=O)(=O)c2ccc3c(c2)oc(=O)n3C)C(C)C)C1 (centres undefined)	nt	-6%	nt	2.2%	8%	-3%	-12%	7%
O=C(N/N=C/C(Br)=C/c1ccccc1)C1CC1	-8%	nt	-10%[46.1 µM]	nt	-6%	43%[activator]	-7%	-3%
COc1ccc(NC(=O)COC(=O)C2CC3C=CC2C3)cc1 (centres undefined)	-14%	nt	25%	nt	-2%	36%[activator]	0%	-8%
Cc1cc(NC(=O)Cn2c(=O)c3c(ncn3CCC(C)C)n(Cc3ccccc3)c2=O)no1	-1%	3%	-16%&-16%	-8.0%	-15%	-10%	-2%&7%	-15%[3.69 µM]
CC(C)CCNC(=O)COC(=O)c1ccc(Br)o1	2%	-1%	22%	-2.7%	-14%	-15%	-5%	4%
O=[N+]([O-])c1ccc(F)cc1OCc1cccc(S(=O)(=O)N2CCOCC2)c1	2%	nt	0%	nt	nt	-6%	nt	-28%
OC(c1cccs1)c1nccc2ccccc12 (centres undefined)	11%	-5%	13%[46.1 µM]	-3.9%	1%	-5%	-1%	-3%
Cc1cc2oc(C(=O)N(Cc3ccc(N(C)C)cc3)CC3CCCO3)c(C)c2cc1Cl (centres undefined)	?	-7%	-1%[46.1 µM]	0.4%	nt	5%	nt	nt

Screens (PubChem)
